Compound activity deposited in PubChem by several laboratories.
Mtb betalactam – beta-lactam sensitization of Mtb H37Rv. M. tuberculosis H37Rv growth with meropenem, percent inhibition; hits of this screen are not shown here. inhibition, % at 25 µM. 330,000 compounds, 0.27% hits;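 active = about 74% or more and at least 40 points above the plate without the antibiotic, then above 30% in a dose series; inconclusive = first-round hits that could not be retested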;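 note: growth measured after seven days incubation then overnight dye step; 0% = bacteria only wells and 100% = bacteria with antibiotic; twin plates without the antibiotic show which effects depend on it; some results filed as inactive read as strong as hits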
Arbovirus anti – blocks arbovirus infection; arbovirus infection cell-based antiviral screen; inhibition, % at 10 µM; 200,000 compounds, 0.37% hits; AID 1251;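 active = inhibition from about 30%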;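 note: bluetongue infection of BSR cells; cell survival read as ATP light after 72 h; 0% = infected wells without compound and 100% = uninfected wells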
Mtb H37Rv – M. tuberculosis H37Rv growth inhibitors, H37Rv strain (AID 1626). M. tuberculosis H37Rv growth inhibition; higher % means a stronger effect. inhibition, % at 10 µM; hits with a dose series show IC50 in µM. 220,000 compounds, 0.95% hits;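 active = confirmed in a dose series; inconclusive = inhibition above 80% but not taken into the dose series; inactive = below 80% or under 30% at every dose of the series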;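 note: bacteria incubated seven days before Alamar blue readout; 0% = bacteria only wells and 100% = bacteria with antibiotic wells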
RecA splice inh – inhibitors of M. tuberculosis RecA intein splicing. inhibition, %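 (about 9 µM by stock and volumes)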. cell-free RecA intein splicing, fluorescence. 290,000 compounds, 0.75% hits. P9WHJ3. AID 2221; in the data active = inhibition above about 30%; inconclusive = no clear call, values can overlap the other calls;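 note: 0% = vehicle wells and 100% = reference inhibitor control wells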
Target sequence (P9WHJ3 whole entry, looked up, canonical isoform): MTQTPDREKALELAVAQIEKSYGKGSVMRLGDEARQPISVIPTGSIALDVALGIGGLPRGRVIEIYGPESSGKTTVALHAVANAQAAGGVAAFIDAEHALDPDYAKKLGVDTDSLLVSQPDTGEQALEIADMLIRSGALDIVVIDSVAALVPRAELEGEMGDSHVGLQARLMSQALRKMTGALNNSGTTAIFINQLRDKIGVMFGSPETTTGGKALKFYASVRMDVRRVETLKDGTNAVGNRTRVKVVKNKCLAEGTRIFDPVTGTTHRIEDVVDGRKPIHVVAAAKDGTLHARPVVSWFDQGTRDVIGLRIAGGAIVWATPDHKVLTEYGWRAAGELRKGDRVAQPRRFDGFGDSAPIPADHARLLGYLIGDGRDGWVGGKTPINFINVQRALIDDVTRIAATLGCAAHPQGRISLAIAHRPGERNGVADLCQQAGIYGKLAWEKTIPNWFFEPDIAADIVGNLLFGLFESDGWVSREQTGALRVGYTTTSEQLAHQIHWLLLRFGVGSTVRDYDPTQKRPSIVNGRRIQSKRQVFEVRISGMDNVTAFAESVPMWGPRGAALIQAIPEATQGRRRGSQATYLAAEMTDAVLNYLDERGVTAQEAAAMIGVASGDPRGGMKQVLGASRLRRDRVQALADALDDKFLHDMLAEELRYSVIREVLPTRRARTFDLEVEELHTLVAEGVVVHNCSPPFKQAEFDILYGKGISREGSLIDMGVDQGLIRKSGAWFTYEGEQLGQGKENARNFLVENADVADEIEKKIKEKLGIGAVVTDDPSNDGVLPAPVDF
YopH PTP inh – YopH (Yersinia) phosphatase inhibition. fluorescence Ex485/Em525. inhibition, %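 (about 10 µM by stock and volumes)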. 140,000 compounds, 0.16% hits;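 active = inhibition of 50% or more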;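 note: controls were vehicle for no effect and minimum signal wells for full effect; inactives centre near -20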
Arbovirus anti repeat – second read-out of Arbovirus anti, no call of its own (marks repeat the call); inhibition, %; measured here: 10K subset replicate screen; many hits read low in the repeat;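 first of two repeat runs on a subset; 0% = infected and 100% = uninfected wells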
* marks the source's active call; other numbers are inactive results.

How did Cc1noc(C)c1S(=O)(=O)N(CC(=O)N1CCCCCC1)c1ccc(C(C)C)cc1 do in these assays?
Mtb betalactam: 0; Arbovirus anti: -2; Mtb H37Rv: -13%; RecA splice inh: 5.4; YopH PTP inh: -35

Results for Cc1ccc(CN(Cc2ccco2)C(=S)NCC(=O)O)cc1 ?
Mtb betalactam: 1; Arbovirus anti: 1; Mtb H37Rv: -1%; RecA splice inh: 0.2; YopH PTP inh: -21

How did CN(C)CCCSc1nc2ccccc2s1 do in these assays?
Mtb betalactam: 0; Arbovirus anti: -4; Mtb H37Rv: -2%; RecA splice inh: -0.7

What do the screens show for `COc1ccccc1OC[C@H](O)CO`?
Mtb betalactam: -8; RecA splice inh: 1.7

Results for CC(C)c1ccc(NC(=O)c2cc(S(=O)(=O)NCC3COc4ccccc4O3)ccc2F)cc1 (centres undefined) ?
Mtb betalactam: 1; Arbovirus anti: -23; Mtb H37Rv: 8%; RecA splice inh: -1.3; YopH PTP inh: 7

How did CCOc1ccc(CCNC(=O)Cn2c(=O)oc3ccccc32)cc1OCC do in these assays?
Mtb betalactam: 1; Arbovirus anti: -7; Mtb H37Rv: -2%; RecA splice inh: 4.4; YopH PTP inh: -16

What do the screens show for `CN(C)CCCNS(=O)(=O)c1cc(Cl)c(Cl)cc1Cl`?
Mtb betalactam: 2; Mtb H37Rv: -11%; RecA splice inh: -0.6

How did CCOC(=O)c1sc(/N=C/c2c(O)ccc3ccccc23)cc1C do in these assays?
Mtb betalactam: 45; Arbovirus anti: -1; Mtb H37Rv: 31%; RecA splice inh: -0.6; YopH PTP inh: -14

Results for CC1CCC(NC(=O)C2CCN(c3nc4ccccc4s3)CC2)CC1 (centres undefined) ?
Mtb betalactam: -6; RecA splice inh: 0.8

How did CC1=CC(C/C(C)=C/COc2ccc3ccc(=O)oc3c2)OC1=O (centres undefined) do in these assays?
Mtb betalactam: -4; Mtb H37Rv: -9%; RecA splice inh: -3.8

What do the screens show for `Cc1ccc(C(=O)Nc2cnc3ccccn3c2=O)cc1`?
Mtb betalactam: 2; Arbovirus anti: 2; Mtb H37Rv: -4%; RecA splice inh: 1.8; YopH PTP inh: -28

What do the screens show for `COC(=O)CSc1nnc(CNc2ccc(Cl)cc2)n1Cc1ccccc1`?
Mtb betalactam: 94; Arbovirus anti: 0; Mtb H37Rv: -10%; RecA splice inh: 2.8; YopH PTP inh: -39

How did COC(CNC(=O)c1ccc(N2CCCC2=O)cc1)OC do in these assays?
Mtb betalactam: -9; Arbovirus anti: -1; Mtb H37Rv: -9%; RecA splice inh: -2.8; YopH PTP inh: -8

How did Cc1cc(C)c(S(=O)(=O)c2ccc(F)cc2C)c(=O)[nH]1 do in these assays?
Mtb betalactam: 2; RecA splice inh: -1.7

What do the screens show for `CCCc1nnc(SCc2ccc(OCC)cc2)n1N`?
Mtb betalactam: -5; Arbovirus anti: 11; RecA splice inh: 4.1; YopH PTP inh: -39

What do the screens show for `Cc1nnc(SCCOc2ccccc2)s1`?
Mtb betalactam: -15; Arbovirus anti: -2; Mtb H37Rv: 2%; RecA splice inh: 2.9

Results for Cc1cc(C)n(CCOc2ccc(Br)cc2)n1 ?
Mtb betalactam: 4; RecA splice inh: 0.7

How did COc1ccc(N2C(=O)CCC(C(=O)NCc3cccnc3)C2c2ccc(OC)c(OC)c2)cc1 (centres undefined) do in these assays?
Mtb betalactam: -7; Arbovirus anti: 11; Mtb H37Rv: -4%; RecA splice inh: -0.8; YopH PTP inh: -23

What do the screens show for `O=C(OCC(=O)N1CCOCC1)c1ccc(Cl)cc1[N+](=O)[O-]`?
Mtb betalactam: 0; RecA splice inh: -1.3

How did CCN(C(=O)c1c(N)cnn1C)c1ccccc1 do in these assays?
Mtb betalactam: -7; Arbovirus anti: 0; Mtb H37Rv: 0%; RecA splice inh: 2.9

Overlap with the part before: six entries, followed by the next part.
What do the screens show for `CCCc1nnc(SCc2ccc(OCC)cc2)n1N`?
Mtb betalactam: -5; Arbovirus anti: 11; RecA splice inh: 4.1; YopH PTP inh: -39

What do the screens show for `Cc1nnc(SCCOc2ccccc2)s1`?
Mtb betalactam: -15; Arbovirus anti: -2; Mtb H37Rv: 2%; RecA splice inh: 2.9

Results for Cc1cc(C)n(CCOc2ccc(Br)cc2)n1 ?
Mtb betalactam: 4; RecA splice inh: 0.7

How did COc1ccc(N2C(=O)CCC(C(=O)NCc3cccnc3)C2c2ccc(OC)c(OC)c2)cc1 (centres undefined) do in these assays?
Mtb betalactam: -7; Arbovirus anti: 11; Mtb H37Rv: -4%; RecA splice inh: -0.8; YopH PTP inh: -23

What do the screens show for `O=C(OCC(=O)N1CCOCC1)c1ccc(Cl)cc1[N+](=O)[O-]`?
Mtb betalactam: 0; RecA splice inh: -1.3

How did CCN(C(=O)c1c(N)cnn1C)c1ccccc1 do in these assays?
Mtb betalactam: -7; Arbovirus anti: 0; Mtb H37Rv: 0%; RecA splice inh: 2.9

How did O=C(CCCCn1c(=O)c2ccccc2n(Cc2ccc(F)cc2)c1=O)NCc1ccco1 do in these assays?
Mtb betalactam: 10; Arbovirus anti: -23; Mtb H37Rv: 2%; YopH PTP inh: -33

How did O=C(Nc1ccc(-c2noc(CCc3ccccc3)n2)cc1)c1cccnc1 do in these assays?
Mtb betalactam: 94; Arbovirus anti: 13; Mtb H37Rv: 18%; RecA splice inh: 5.8; YopH PTP inh: -27

What do the screens show for `Cn1/c(=N/N=C/c2ccc([N+](=O)[O-])cc2)sc2ccccc21`?
Arbovirus anti: -1; Mtb H37Rv: -11%; YopH PTP inh: -34

Results for O=C(NCCN1CCOCC1)NC1(C(F)(F)F)Oc2ccc(Cl)cc2O1 (centres undefined) ?
Mtb betalactam: 77; Arbovirus anti: -11; Mtb H37Rv: 7%; RecA splice inh: -7.1; YopH PTP inh: -20

How did O=C(COc1coc(CN2CCN(c3ccccc3)CC2)cc1=O)Nc1cccc(F)c1 do in these assays?
Mtb betalactam: 2; RecA splice inh: -0.4

What do the screens show for `CCOc1cc(/C=N/NC(N)=O)cc(Br)c1OCC(=O)Nc1cccc2ccccc12`?
Mtb betalactam: 5; Arbovirus anti: -1; Mtb H37Rv: 11%; RecA splice inh: -0.4; YopH PTP inh: -45

Results for O=C(NCCc1c[nH]c2ccccc12)c1ccco1 ?
Mtb betalactam: 1; RecA splice inh: 3.7

What do the screens show for `Cc1cccc(NC(=O)c2ccc(-n3cncn3)c([N+](=O)[O-])c2)c1`?
Mtb betalactam: -11; RecA splice inh: -11

How did CN(c1cccc(NC(=O)Nc2cccc(Cl)c2)c1)S(C)(=O)=O do in these assays?
Mtb betalactam: -3; Arbovirus anti: 9; Mtb H37Rv: 1%; RecA splice inh: 18; YopH PTP inh: -15

What do the screens show for `Cc1noc(C)c1C1(O)CCCCCCCCCCC1`?
Mtb betalactam: -4; Arbovirus anti: 3; Mtb H37Rv: 3%; RecA splice inh: -0.4; YopH PTP inh: -20

Results for CCCn1c(C(O)c2cc(OC)ccc2OC)nc2ccccc21 (centres undefined) ?
Mtb betalactam: 5; Arbovirus anti: 2; RecA splice inh: -2.1; YopH PTP inh: -3

How did O=C(O)c1cc(S(=O)(=O)N2CC3CC3C2C(=O)O)c(Cl)cc1Cl (centres undefined) do in these assays?
Mtb betalactam: 8; RecA splice inh: 1.4

Results for O=C(NCN1C(=O)C2C3C=CC(C3)C2C1=O)Nc1cccnc1 (centres undefined) ?
Mtb betalactam: 0; Arbovirus anti: 4; Mtb H37Rv: -26%; RecA splice inh: 3.6; YopH PTP inh: -41

How did Cc1ccc(/C=C/C(=O)O)cc1S(=O)(=O)NCCO do in these assays?
Mtb betalactam: -8; Arbovirus anti: 8; Mtb H37Rv: 0%; RecA splice inh: -0.4; YopH PTP inh: -45

Results for CCOC(=O)c1c(NC(=O)CSc2ncn[nH]2)sc(C(=O)NC)c1C ?
Mtb betalactam: inconclusive; RecA splice inh: 0.6

What do the screens show for `CCOc1ccccc1N1C(=O)CC(Nc2ccc(N3CCOCC3)cc2)C1=O` (centres undefined)?
Mtb betalactam: 5; Arbovirus anti: -11; Mtb H37Rv: -1%; RecA splice inh: -1.2; YopH PTP inh: -40; Arbovirus anti repeat: -4

What do the screens show for `CCN(CC)S(=O)(=O)c1cccc(C(=O)OC2CC(C)OC2=O)c1` (centres undefined)?
Mtb betalactam: -2; RecA splice inh: -1.0

How did Cc1c(Cc2ccc3c(c2)OCO3)sc(NC(=O)C2CC2)c1C(N)=O do in these assays?
Mtb betalactam: 0; RecA splice inh: -2.3

Results for COc1ccc(N2CCC(N3CCN(C)C(CCO)C3)CC2)cc1 (centres undefined) ?
Mtb betalactam: 5; RecA splice inh: -3.1

What do the screens show for `O=C(CCc1nnc2ccc(NCc3ccc(F)cc3)nn12)N1CCC2(CC1)OCCO2`?
Mtb betalactam: 4; RecA splice inh: -0.4

What do the screens show for `COc1cc(OC)cc(C(=O)N[C@H](C(=O)OCC(=O)NC(=O)c2cccn2C)C(C)C)c1`?
Mtb betalactam: -1; Arbovirus anti: 0; Mtb H37Rv: 5%; RecA splice inh: 3.7

How did CS(=O)(=O)c1ccc(Cl)c(NC(=O)Cc2c(F)cccc2Cl)c1 do in these assays?
Mtb betalactam: -3; Arbovirus anti: -7; Mtb H37Rv: -3%; RecA splice inh: 14

What do the screens show for `S=c1nc(-c2cccc(Br)c2)[nH][nH]1`?
Mtb betalactam: 16; Arbovirus anti: 2; Mtb H37Rv: 0%; RecA splice inh: -1.5; YopH PTP inh: -33

What do the screens show for `CC(=O)Nc1ccc(S(=O)(=O)Nc2nnc(C(C)(C)C)s2)cc1`?
Mtb betalactam: -1; Arbovirus anti: 3; Mtb H37Rv: 3%; RecA splice inh: -0.4; YopH PTP inh: -18

How did COCCn1c(SCC(=O)N2CCc3ccccc3C2)nc2ccccc2c1=O do in these assays?
Mtb betalactam: 0; Arbovirus anti: 4; Mtb H37Rv: 4%; RecA splice inh: 5.4; YopH PTP inh: -22

Results for Cc1ccc(SCC(=O)OCC(=O)N(CC(C)C)c2c(N)n(Cc3ccccc3)c(=O)[nH]c2=O)cc1C ?
Mtb betalactam: -4; RecA splice inh: -2.2

What do the screens show for `C/C(=N\NC(=O)CSc1nnc(C)s1)c1ccc(Cl)cc1`?
Mtb betalactam: 0; Arbovirus anti: -2; Mtb H37Rv: -1%; RecA splice inh: 1.7; YopH PTP inh: -11

Results for CCO[C@@H]1OC(C(=O)NCc2nc3ccccc3[nH]2)=C[C@H](c2cn(C(C)=O)c3ccccc23)[C@H]1CCCO ?
Mtb betalactam: 55; Arbovirus anti: -10; Mtb H37Rv: 2%; RecA splice inh: 0.7

How did O=C(Nc1ccc2c(c1)COC2=O)c1ccc(Cl)c(Cl)c1 do in these assays?
Mtb betalactam: -2; RecA splice inh: -0.5

Results for CC(=O)Oc1ccc(N(C(C)=O)S(=O)(=O)c2ccc3ccccc3c2)cc1Br ?
Mtb betalactam: 13; RecA splice inh: 36*

How did CC(C)(Oc1ccc(Cl)cc1)C(=O)N1CCN(C(=O)c2ccco2)CC1 do in these assays?
Mtb betalactam: 4; RecA splice inh: 1.0

Results for O=S(=O)(c1ccc(F)cc1)N1CCC(c2nc3ccccc3[nH]2)CC1 ?
Mtb betalactam: 3; RecA splice inh: 0.5

How did CCNC(=O)COc1ccc2ccccc2c1 do in these assays?
Mtb betalactam: inconclusive; Arbovirus anti: 0; Mtb H37Rv: -7%; RecA splice inh: 0.9; YopH PTP inh: -36; Arbovirus anti repeat: 4

Results for CCOC(=O)c1cccc(NC(=O)C2CCC(CNc3c(N4CCOCC4)c(=O)c3=O)CC2)c1 (centres undefined) ?
Mtb betalactam: -7; Arbovirus anti: -3; Mtb H37Rv: 1%; RecA splice inh: -1.9; YopH PTP inh: -49; Arbovirus anti repeat: 2

Results for O=S(=O)(c1ccc(Cl)c(C(F)(F)F)c1)N1CCN(CC(O)COCC2CCCO2)CC1 (centres undefined) ?
Mtb betalactam: 0; Arbovirus anti: 12; Mtb H37Rv: -1%; RecA splice inh: 1.1; YopH PTP inh: -30

Results for COc1ccc(CNC(=O)C2CCC(CNS(=O)(=O)c3ccc(C)cc3)CC2)cc1 (centres undefined) ?
Mtb betalactam: 0; RecA splice inh: 1.1

Results for Cc1ccc(-c2nnc(CSc3nc(C)nc4sc(C)c(C)c34)o2)cc1 ?
Mtb betalactam: 12; Mtb H37Rv: 2%; RecA splice inh: 0.1

Results for c1ccc2c(c1)Nc1nccnc1S2 ?
Mtb betalactam: -2; Arbovirus anti: -3; Mtb H37Rv: -2%; YopH PTP inh: -20

Not all compounds are listed. The share of hits here may be higher or lower than overall.
